# Env fusion inh = inhibitors of HIV-1 Env-driven cell-cell fusion, primary screen, HeLa-JRFL effector, CEM21 target cells, luciferase. inhibition, % at 12.3 µM. hit rate 1.1% among 360,000;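 active means mean replicate inhibition score of at least 50 and every replicate individually at or above 50; inconclusive means only one of the two criteria met; inactive means mean below 50 and not all replicates reaching 50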;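 further: 0% = plate neutral controls and 100% = maraviroc near 300 nM; one replicate is shown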
# UUG fidelity = modulators of yeast start codon fidelity, primary screen, whole organism, S. cerevisiae, single point, plate reader | S. cerevisiae UUG-firefly luciferase reporter, luminescence/redox ratio | activity score, % at 18.7 µM | hit rate 0.13% among 350,000 | AID 602363, 2012;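 active means replicate mean at a twofold rise or more, about +100% in these data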;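 further: firefly luciferase made from a UUG start codon reports start codon fidelity; reporter light over untreated wells divided by growth signal over untreated wells; some hits fall short of that in this replicate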
# MT1-MMP act inh = blockers of MT1-MMP proenzyme processing, primary screen, HT1080 RFP-PRO-GFP cells, GFP/RFP fluorescence; hit rate 0.061% among 360,000; GFP/RFP ratio fluorescence, overnight; percent of plate control window, DMSO zero; GFP/RFP ratio change, % at 20 µM; AID 651647, 2012;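 active means GFP/RFP ratio change of at least 30% with cell ATP level not reduced by more than half and red fluorescence within 50% of control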; further: strong numbers were not always called active
#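 system = RFP-PRO-GFP reporter HT1080 cells | dosing = 20 µM single dose, 1% DMSO | timing = overnight cell settling, then overnight compound exposure, 37 °C, 5% CO2 | read-out basis = GFP/RFP fluorescence ratio | controls = DMSO and RFP-L50D-GFP cell wells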
# eIF4H FP inh = human eIF4H binding inhibitors, primary screen, translation initiation inhibitor project, biochemical, uHTS, fluorescence polarization. Eukaryotic translation initiation factor 4H (Homo sapiens), Q15056. eIF4H fluorescence polarization binding assay. inhibition, % at 35 µM. hit rate 0.94% among 290,000. AID 2012, 2009;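 active means 50% or more with normal probe brightness, or confirmed in later tests; inconclusive means above 50% with abnormal brightness, or retests that disagree; inactive means below 50% or failed in later tests; about a fifth of its hits are not listed in these tables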;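 further: calls also rest on retests at 20 µM and on dose response follow-up; 0% = protein and probe with vehicle and 100% = probe without protein; strong numbers were not always called active; many hits fall short of the cut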
# Rce1 inh = yeast Rce1p protease inhibitors, primary screen, biochemical, fluorescence, cell-free homogeneous. CAAX prenyl protease 2 (Saccharomyces cerevisiae (strain ATCC 204508 / S288c)), Q03530. yeast membranes, quenched prenylated peptide cleavage fluorescence. calls only. hit rate 0.27% among 290,000. AID 2563, 2010;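 active means fall in fluorescence gain of 50% or more versus controls, with final raw signal at or below 3038400; inconclusive means same 50% fall but final raw signal above 3038400; inactive means fall in fluorescence gain under 50%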;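 further: plate controls were neutral control wells for no effect and wells lacking membranes for full effect; tested at 10 µM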
# PABP FP inh = PABP poly(A) RNA binding inhibitors, primary screen, biochemical, fluorescence polarization, uHTS; Polyadenylate-binding protein 1 (Homo sapiens), P11940; AID 2014, 2009; inhibition, % at 35 µM; hit rate 1% among 290,000;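 active means 50% or more with normal probe brightness, or confirmed in later tests; inconclusive means above 50% with abnormal brightness, or retests that disagree; inactive means below 50% or failed in later tests; about a fifth of its hits are not listed in these tables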;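 further: calls also rest on retests at 20 µM and on dose response follow-up; controls were probe without protein and protein plus probe with vehicle; some compounds called inactive have numbers as strong as hits; many hits fall short of the cut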
# Target sequence (P11940 whole entry, looked up): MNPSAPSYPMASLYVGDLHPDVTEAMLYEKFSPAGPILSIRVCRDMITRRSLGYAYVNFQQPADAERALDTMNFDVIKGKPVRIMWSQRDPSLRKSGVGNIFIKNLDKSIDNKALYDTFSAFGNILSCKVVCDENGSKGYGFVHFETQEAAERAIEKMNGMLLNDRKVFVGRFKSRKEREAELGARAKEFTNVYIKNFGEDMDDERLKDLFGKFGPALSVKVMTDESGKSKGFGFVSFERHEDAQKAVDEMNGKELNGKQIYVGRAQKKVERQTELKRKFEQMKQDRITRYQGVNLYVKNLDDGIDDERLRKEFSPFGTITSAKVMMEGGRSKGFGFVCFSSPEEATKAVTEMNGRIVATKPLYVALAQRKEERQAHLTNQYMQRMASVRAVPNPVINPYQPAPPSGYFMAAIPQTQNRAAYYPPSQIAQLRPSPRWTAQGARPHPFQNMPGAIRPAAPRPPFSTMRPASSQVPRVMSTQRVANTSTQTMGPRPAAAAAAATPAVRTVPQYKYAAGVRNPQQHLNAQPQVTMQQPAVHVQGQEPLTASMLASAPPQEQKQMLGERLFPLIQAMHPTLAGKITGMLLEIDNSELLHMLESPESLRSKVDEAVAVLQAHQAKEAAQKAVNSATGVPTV
# CSC inhib = cancer stem cell viability inhibitors, primary screen, luminescence. cancer stem cell-like cells viability. inhibition, % at 7.5 µM. hit rate 1.1% among 300,000. AID 2717, 2010;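 active means mean at 75% or more and at least half the replicates too; inconclusive means mean and replicates disagree; tested in HMLE shEcad cells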;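 further: 0% = median of negative and 100% = median of positive control wells; the first replicate is given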
# MT1-MMP act inh RFP = also measured in MT1-MMP act inh; calls as there; RFP signal change, %; measured here: RFP expression control read;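 0 = vehicle wells; hits needed this value within 50% of zero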
# Active calls of the source: *; i = inactive; ? = inconclusive; . = no result given. Rows were taken by chance; 2.9% or so of the library scored in one or more.
SMILES,Env fusion inh,UUG fidelity,MT1-MMP act inh,MT1-MMP act inh RFP,eIF4H FP inh,Rce1 inh,PABP FP inh,CSC inhib
NC(=O)c1c(NC(=O)c2cccnc2Cl)sc2c1CCCC2,-7,-2,2,4,11,i,-1,9
Cc1cc(C)nc(SCc2cc(=O)c(OC(=O)c3ccc(Br)o3)co2)n1,-13,-1,-2,3,2,i,3,-12
O=C(CN1CCCCC1)N1CCN(S(=O)(=O)c2ccccc2)C1,0,-6,5,3,4,i,19,-6
Cc1ccc(S(=O)(=O)N2C(=O)CCC2C(=O)Nc2ccc3c(c2)OCCO3)cc1 (stereo unspecified),-2,-14,8,4,6,i,4,.
Cc1ccnc(NC(=O)COc2ccc(Cl)cc2)n1,-16,0,-4,1,13,i,2,-7
COc1ccc(C)cc1NC(=O)C1CCCN(S(=O)(=O)c2ccc(-n3cnnn3)cc2)C1 (stereo unspecified),16,-12,-3,-8,0,i,-2,.
C[C@H](NC(=O)N1CCn2c1nc1ccccc12)C(=O)N1CCCCC1,5,-11,0,2,-10,i,-1,-12
CCOC(=O)C1(Cc2cccc(F)c2)CCN(Cc2cnc(C)s2)CC1,-2,-4,-2,3,5,i,-11,0
COCCCNC(=O)CCSc1ccc(Cl)cc1,-226,-20,3,-1,-7,i,-10,-11
CCOc1ccccc1NC(=S)NCCc1ccccc1,15,.,-4,1,5,i,-2,-1
Cc1cc(C)nc(NC(=O)CCC2CCCC2)c1,0,1,-25,-22,6,i,3,10
O=Nc1c(-c2cccc([N+](=O)[O-])c2)nc2ncccn12,-81,-2,0,-3,-7,i,2,4
Cc1ccc(C2Nc3ccccc3C(=O)N2CCN2CCNC2=O)cc1 (stereo unspecified),5,.,2,1,-2,i,-12,-10
Cc1cc([N+](=O)[O-])nn1CC(=O)Nc1nccs1,0,-5,14,5,6,i,0,-10
CCC1(O)c2ccccc2-c2ncccc21 (stereo unspecified),-26,-14,-1,-1,-2,i,-9,-1
CCOC(=O)c1c(N)sc(C(=O)N2CCCCCC2)c1C,.,-9,-3,0,1,i,4,-14
O=c1oc2ccccc2c(O)c1Cc1cc(Cl)c2cccnc2c1O,-7,.,2,3,24,i,16,?
COCCn1c(C)cc(C2=NNC(=Nc3ccc(Cl)cc3Cl)SC2)c1C,-83,-8,-6,-1,-11,i,2,-2
CN1CCN(S(=O)(=O)c2ccc(N3CCN(c4ccccc4O)CC3)c([N+](=O)[O-])c2)CC1,17,-2,4,-2,.,.,.,.
COc1ccc(N(C)C(=O)c2oc(=O)c3ccccc3c2-c2ccc(C)cc2)c(OC)c1,7,-31,-6,-11,-2,i,-6,.
CCOC(=O)C1=C(N)OC2=C(C(=O)CC(C)(C)C2)C1c1ccc(C)s1 (stereo unspecified),-14,.,1,3,8,i,18,1
COc1ccc(OC)c(CCNC(=O)c2ccc(CS(=O)Cc3cccc(Cl)c3)o2)c1 (stereo unspecified),7,17,4,1,-10,i,0,-9
OCCOCCOCCn1c2ccccc2c2ccccc21,-31,-7,0,7,-4,i,0,-15
Cc1cccc(N2CCN(S(=O)(=O)c3c(C)nc4scc(C)n4c3=O)CC2)c1C,30,-45,5,-5,-6,i,1,.
COc1cc(C)ccc1S(=O)(=O)NC(=O)C1(C)CCN1C(=O)Cc1ccccc1Cl (stereo unspecified),-20,17,2,0,.,.,.,.

# Reformatted with tabs: two of the compounds above
SMILES	Env fusion inh	UUG fidelity	MT1-MMP act inh	MT1-MMP act inh RFP	eIF4H FP inh	Rce1 inh	PABP FP inh	CSC inhib
OCCOCCOCCn1c2ccccc2c2ccccc21	-31	-7	0	7	-4	i	0	-15
Cc1cccc(N2CCN(S(=O)(=O)c3c(C)nc4scc(C)n4c3=O)CC2)c1C	30	-45	5	-5	-6	i	1	.

# Single records, from the list above.
# COCCCNC(=O)CCSc1ccc(Cl)cc1 in the list: Env fusion inh = -226; UUG fidelity = -20; MT1-MMP act inh = 3; MT1-MMP act inh RFP = -1; eIF4H FP inh = -7; Rce1 inh = i; PABP FP inh = -10; CSC inhib = -11
# COCCn1c(C)cc(C2=NNC(=Nc3ccc(Cl)cc3Cl)SC2)c1C in the list: Env fusion inh = -83; UUG fidelity = -8; MT1-MMP act inh = -6; MT1-MMP act inh RFP = -1; eIF4H FP inh = -11; Rce1 inh = i; PABP FP inh = 2; CSC inhib = -2
# CCOc1ccccc1NC(=S)NCCc1ccccc1 in the list: Env fusion inh = 15; UUG fidelity = .; MT1-MMP act inh = -4; MT1-MMP act inh RFP = 1; eIF4H FP inh = 5; Rce1 inh = i; PABP FP inh = -2; CSC inhib = -1

# The results go on.
SMILES,Env fusion inh,UUG fidelity,MT1-MMP act inh,MT1-MMP act inh RFP,eIF4H FP inh,Rce1 inh,PABP FP inh,CSC inhib
O=[N+]([O-])c1cc(-c2ccc(C(=S)N3CCOCC3)o2)ccc1Cl,6,.,-13,9,28,i,-8,20
COc1ccc(COc2ccc(C3C(S(=O)(=O)c4ccccc4)CON3C)cc2OC)cc1 (stereo unspecified),0,-8,0,-6,-12,i,-3,-5
O=C(O)CC1NC(=O)N(C2CCCCC2)C1=O (stereo unspecified),10,.,1,3,6,i,10,-5
CN(CC(=O)Nc1cccc(F)c1)C(=O)C1CCN(C(=O)c2ccc(Cl)cc2)CC1,5,-22,4,2,.,.,.,-11
O=C(O)CC(NC(=O)c1ccc2c(c1)OCO2)c1cccc([N+](=O)[O-])c1 (stereo unspecified),12,.,-2,-2,-4,i,5,16
Fc1cccc(Cc2c(-c3cccc(Br)c3)nc3ccc(Cl)cn23)c1,-42,-28,-4,-4,.,.,.,.
O=C(COc1ccccc1[N+](=O)[O-])OC1CCS(=O)(=O)C1 (stereo unspecified),-5,-3,-6,3,-2,i,20,-11
COC(=O)c1[nH]c2ccc(C)cc2c1NC(=O)CN1CCN(Cc2ccccc2)CC1,.,-6,2,-2,-18,.,32,-8
CN1CCN(c2nc3cc(C(F)(F)F)ccc3n3cccc23)CC1,-3,2,-7,-1,.,i,.,20
O=C(NCc1ccccn1)C(C(=O)c1cccc([N+](=O)[O-])c1)n1cc(Cl)ccc1=O (stereo unspecified),-6,.,-1,3,8,i,-4,-10
COc1cccc(C=Cc2nccc3ccccc23)c1OC,-310,-30,-1,-3,.,.,.,.
O=C(Nc1ccc(F)cc1F)C1CCCN(c2ncnc3c2nc2n3CCCCC2)C1 (stereo unspecified),.,-2,3,-3,-2,i,-1,49
Cn1c(=O)[nH]c(=O)c2c1nc(N1CCc3ccccc3C1)n2CCSc1nc2ccccc2s1,-32,-9,2,-3,-10,.,-2,-9
CC1(C(=O)Nc2ccc3c(c2)OCCO3)CCN1Cc1ccc2ccccc2c1 (stereo unspecified),19,2,-2,-5,.,.,.,.
O=C(O)c1cccc(N2C(=S)N=C(Nc3ccccc3)C23CCCCC3)c1,-6,.,9,0,-7,i,0,-12
CCc1cc(Br)ccc1N1C(=O)C2CC=CCC2C1=O (stereo unspecified),.,2,-2,-4,0,i,28,-5
Cc1oc2nc(SCCCC(=O)NCCCO)nc(N)c2c1C,.,-3,0,-3,-10,i,-6,-16
CCN(CC)S(=O)(=O)c1ccc(N2CCOCC2)c(NC(=O)c2ccccc2F)c1,21,.,-1,-9,3,i,1,13
Cc1cc(C(=O)N/N=C/c2c(C)[nH]n(-c3ccccc3)c2=O)n[nH]1,0,-10,-1,4,4,i,5,.
CC1CCCN(C(=O)CCNC(=O)c2ccccc2Cl)C1 (stereo unspecified),1,-4,-4,-3,-7,i,-6,-2
Cc1ccc(S(=O)(=O)N(C)C[C@@H]2Oc3c(NS(C)(=O)=O)cccc3C(=O)N([C@H](C)CO)C[C@@H]2C)cc1,-41,-8,4,9,.,.,.,.
CCOc1ccc(Cl)cc1-c1cc(C(=O)Nc2ccc(C(C)C)cc2)[nH]n1,-30,-3,-6,-16,.,.,.,.
COC(=O)[C@@]1(Cc2ccc(F)cc2)[C@H]2c3cc(C(=O)N(C)C)n(CCSCCO)c3C[C@H]2CN1C(=O)c1ccccc1,-13,.,.,.,-3,i,2,-12
O=C(O)CCC(=O)N(Cc1cccnc1)Cc1cccc(F)c1,-107,-12,-2,7,-12,i,4,-9
CCn1c(-c2ccc(C)cc2)n[nH]c1=S,-35,-23,7,-2,-2,i,7,-5
# Next part
SMILES,Env fusion inh,UUG fidelity,MT1-MMP act inh,MT1-MMP act inh RFP,eIF4H FP inh,Rce1 inh,PABP FP inh,CSC inhib
c1ccc(Sc2nc(N3CCCCC3)nc(N3CCCCC3)n2)nc1,-25,4,-7,-4,-2,i,0,-9
Cc1cccc(/C=N/NC(=O)c2cccc([N+](=O)[O-])c2)n1,0,.,4,4,2,i,1,-9
O=C(O)C1=CC2C=C(Cl)C=CC2OC1=O (stereo unspecified),27,-19,1,6,.,.,.,.
O=C(Nc1cccc2cccnc12)c1cccc2ccccc12,.,-12,-1,0,-10,i,-16,11
O=C(Cn1c(=O)c2cccn2c2cccnc21)N1CCN(c2ccccc2F)CC1,0,-20,-5,-1,13,i,15,2
Cc1nc(C)c(C(=O)O)c(-c2cccs2)c1C(=O)O,-11,4,3,2,-4,i,-6,6
COc1ccc(OCCCC(=O)Oc2ccc(OC)cc2)cc1,20,-11,4,0,-1,i,-14,8
O=C(COc1ccc(Br)cc1Br)NNC(=O)c1cccs1,-62,-15,1,3,-5,i,-6,-7
c1cncc(Nc2c3ccccc3nc3ccccc23)c1,23,-7,2,-5,-13,i,4,21
CCC(=O)c1ccc(OCC(O)CN2CCN(C(c3ccccc3)c3ccccc3)CC2)cc1 (stereo unspecified),32,-7,-10,-7,-1,i,-2,-14
O=C(CN1C(=O)C2CCCCC2C1=O)Nc1ccc(OC(F)F)c(Cl)c1 (stereo unspecified),-12,-13,1,1,.,.,.,.
CC(C)N(C)CCOC(=O)c1ccccc1Cl,14,.,-2,1,0,i,-17,12
COc1ccc(CN(Cc2nc3ccccc3c(=O)[nH]2)C(=O)c2ccco2)cc1,-2,-5,1,3,-11,i,-9,2
O=C(CCc1ccccc1)Nc1cc(Cl)ccc1O,-325,.,12,-4,-10,i,-3,16
CCc1ccc(NC(=O)c2n[nH]c(=O)c3ccccc23)cc1,-15,-13,-3,-3,-7,i,0,-2
CCc1ccccc1NC(=O)c1cnc2n(c1=O)CCS2,-4,-10,-3,-7,2,i,-9,-4

# Looked up by structure from above (7):
SMILES,Env fusion inh,UUG fidelity,MT1-MMP act inh,MT1-MMP act inh RFP,eIF4H FP inh,Rce1 inh,PABP FP inh,CSC inhib
O=C(Nc1cccc2cccnc12)c1cccc2ccccc12,.,-12,-1,0,-10,i,-16,11
O=C(COc1ccc(Br)cc1Br)NNC(=O)c1cccs1,-62,-15,1,3,-5,i,-6,-7
Cc1nc(C)c(C(=O)O)c(-c2cccs2)c1C(=O)O,-11,4,3,2,-4,i,-6,6
CCc1ccccc1NC(=O)c1cnc2n(c1=O)CCS2,-4,-10,-3,-7,2,i,-9,-4
COc1ccc(OCCCC(=O)Oc2ccc(OC)cc2)cc1,20,-11,4,0,-1,i,-14,8
CCC(=O)c1ccc(OCC(O)CN2CCN(C(c3ccccc3)c3ccccc3)CC2)cc1 (stereo unspecified),32,-7,-10,-7,-1,i,-2,-14
O=C(O)C1=CC2C=C(Cl)C=CC2OC1=O (stereo unspecified),27,-19,1,6,.,.,.,.

# Source: PubChem BioAssay (several laboratories)
